# YopH inh – YopH tyrosine phosphatase inhibitors, primary screen, biochemical, fluorescence Ex485/Em525 | YopH tyrosine phosphatase [Yersinia enterocolitica] | inhibition, %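 (about 10 µM by stock and volumes)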 | 140,000 tested, 0.16% active | AID 898, 2007;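 active means inhibition of 50% or more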;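 further: controls were vehicle for no effect and minimum signal wells for full effect; inactives centre near -20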
# Arbovirus anti – antivirals against arbovirus infection, primary screen, cell-based, full library, 10K replicate subset | arbovirus infection cell-based antiviral screen | inhibition, % at 10 µM | 200,000 tested, 0.37% active;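 active means inhibition from about 30%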;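 further: bluetongue infection of BSR cells; cell survival read as ATP light after 72 h; 0% = infected wells without compound and 100% = uninfected wells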
# RecA splice inh – Mtb RecA intein splicing inhibitors, primary screen, biochemical, fluorescence, HTS; cell-free RecA intein splicing; Protein RecA (Mycobacterium tuberculosis (strain ATCC 25618 / H37Rv)), P9WHJ3; 290,000 tested, 0.75% active; inhibition, %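 (about 9 µM by stock and volumes)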; in the data active means inhibition above about 30%; inconclusive means no clear call, values can overlap the other calls;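 further: 0% = vehicle wells and 100% = reference inhibitor control wells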
# Target sequence (P9WHJ3 whole entry, looked up, canonical isoform): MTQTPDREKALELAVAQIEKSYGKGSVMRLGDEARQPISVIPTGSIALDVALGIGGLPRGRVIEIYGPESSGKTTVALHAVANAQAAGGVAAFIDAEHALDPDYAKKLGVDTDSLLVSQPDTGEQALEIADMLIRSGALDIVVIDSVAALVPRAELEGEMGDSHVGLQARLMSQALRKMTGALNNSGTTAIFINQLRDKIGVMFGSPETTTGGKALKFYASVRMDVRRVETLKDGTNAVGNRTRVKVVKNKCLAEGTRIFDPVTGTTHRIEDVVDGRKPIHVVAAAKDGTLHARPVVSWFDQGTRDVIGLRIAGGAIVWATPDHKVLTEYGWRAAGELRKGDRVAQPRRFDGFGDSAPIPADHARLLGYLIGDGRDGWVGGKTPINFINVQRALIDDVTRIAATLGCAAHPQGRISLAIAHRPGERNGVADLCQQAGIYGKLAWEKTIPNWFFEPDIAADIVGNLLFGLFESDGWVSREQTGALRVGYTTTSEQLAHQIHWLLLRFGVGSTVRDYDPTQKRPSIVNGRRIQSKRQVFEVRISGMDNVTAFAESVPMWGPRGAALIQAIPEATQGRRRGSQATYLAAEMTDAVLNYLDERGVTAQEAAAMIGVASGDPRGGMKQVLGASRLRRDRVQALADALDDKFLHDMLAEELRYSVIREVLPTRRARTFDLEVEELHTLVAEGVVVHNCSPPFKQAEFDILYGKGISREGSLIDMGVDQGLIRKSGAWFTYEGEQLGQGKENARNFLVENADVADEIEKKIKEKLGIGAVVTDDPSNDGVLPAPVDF
# Mtb growth – M. tuberculosis H37Rv growth inhibitors, H37Rv strain (AID 1626); M. tuberculosis H37Rv growth inhibition; higher % means a stronger effect; 220,000 tested, 0.95% active; one-dose inhibition, % at 10 µM; IC50 in µM for titrated hits;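 active means confirmed in a dose series; inconclusive means inhibition above 80% but not taken into the dose series; inactive means below 80% or under 30% at every dose of the series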;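 further: bacteria incubated seven days before Alamar blue readout; 0% = bacteria only wells and 100% = bacteria with antibiotic wells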
# Mtb betalactam – beta-lactam sensitization of Mtb H37Rv, H37Rv. M. tuberculosis H37Rv growth with meropenem, percent inhibition; hits of this screen are not shown here. inhibition, % at 25 µM. 330,000 tested, 0.27% active;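 active means about 74% or more and at least 40 points above the plate without the antibiotic, then above 30% in a dose series; inconclusive means first-round hits that could not be retested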;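 further: growth measured after seven days incubation then overnight dye step; 0% = bacteria only wells and 100% = bacteria with antibiotic; twin plates without the antibiotic show which effects depend on it; some results filed as inactive read as strong as hits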
# Arbovirus anti repeat – second read-out of Arbovirus anti, no call of its own (marks repeat the call); inhibition, %; measured here: 10K subset replicate screen; many hits read low in the repeat;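 first of two repeat runs on a subset; 0% = infected and 100% = uninfected wells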
# * = called active by the depositor; ? = inconclusive; / = not tested or not shown. A portion of the library (hit frequency here may not be typical).
SMILES,YopH inh,Arbovirus anti,RecA splice inh,Mtb growth,Mtb betalactam,others
CCN1C(=O)c2cccc3c(S(=O)(=O)Nc4ccc(O)c(C(=O)O)c4)ccc1c23,/,/,-3.6,/,-8,
COc1ccc(O)c(C(=O)c2cc(C#N)c(=O)n(Cc3ccccc3)c2)c1,/,7,-2.1,4%,-2,
O=[n+]1c2c(n([O-])c3ccccc31)CCC2,-26,-1,6.7,-1%,-8,
CC(NC(=O)c1ccc2nc[nH]c2c1)c1ccccc1 (centres undefined),/,-2,-2.7,-7%,-2,
CCOc1ccc(N(C(=O)CNC(=O)c2cccs2)C(C(=O)NCC2CCCO2)c2ccc(OC)c(OC)c2)cc1 (centres undefined),/,1,2.3,5%,-4,
Cc1cc(C)nc(NC(N)=NCCc2c[nH]c3ccccc23)n1,/,-8,11,11%,5,
COc1cc(OC)c(NC(=O)CCCn2c(=O)oc3ccccc32)cc1Cl,-27,2,-0.9,2%,7,
COc1ccc(CC(=O)NNC(=S)NC(=O)c2cccnc2)cc1,/,/,-0.1,-12%,5,
CC1Cc2cc(/C(O)=C3\C(=O)C(=O)N(CCN(C)C)C3c3ccccc3F)ccc2O1 (centres undefined),35,7,1.2,-9%,-20,
COc1ccc2cc(N=Cc3nc(-c4ccc(C)cc4)oc3O)cnc2c1,/,10,-4.6,2%,7,
O=C(O)CNc1ncccc1[N+](=O)[O-],/,2,1.0,-6%,-9,
Cc1cc(C)n(CCC(=O)N/N=C/c2ccc(Br)c([N+](=O)[O-])c2)n1,/,/,0.3,5%,1,
O=c1oc2cc(OCc3c(F)cccc3Cl)ccc2cc1-c1ccccn1,-26,-5,-6.8,2%,16,
COc1ccccc1[As](=O)(O)CC(O)COc1ccc(Cl)cc1Cl (centres undefined),/,/,2.0,-6%,8,
Cc1ccc(CNC(=O)C2CCCN(S(=O)(=O)N3CC(C)CC(C)C3)C2)cc1 (centres undefined),/,/,2.0,/,4,
COc1ccc(N(CC(=O)NCCC2=CCCCC2)S(C)(=O)=O)cc1OC,7,9,-2.1,-1%,/,
COC(=O)C1(Cc2cc(-c3ccccc3)no2)CCN(C(=O)OC(C)(C)C)CC1,/,/,6.2,/,-3,
COc1ccc(CN(C)C(C)C(=O)Nc2cccc3ccccc23)cc1 (centres undefined),/,/,3.7,/,60,
O=c1nc(N/N=C/C=C/c2ccccc2)cn[nH]1,/,/,/,8%,92,
O=C(CCNS(=O)(=O)c1cccc2nsnc12)NCc1ccccc1Cl,/,-7,2.0,8%,-2,
COc1cc(S(=O)(=O)N2CCCCCC2)c(OC)cc1Br,-32,5,4.0,-8%,8,Arbovirus anti repeat=1
CC(C)(C)NCc1cc(Cl)ccc1OCc1cccs1,9,7,-0.5,12%,5,
COc1ccc(-c2nc3ccccc3c(=O)n2-c2nccs2)cc1,-30,-2,-0.8,-4%,1,
CC(C(=O)Nc1ccc(S(=O)(=O)N2CCOCC2)cc1)N1C(=O)C2CC=CCC2C1=O (centres undefined),/,5,-3.3,17%,-9,
O=C(Nc1ccc(N2CCCC2)cc1)c1ccc(Cl)cc1Cl,/,/,3.6,/,1,
O=C(CC1C(=O)NCCN1Cc1ccc(Cl)c(F)c1)NC1CCCCC1 (centres undefined),/,/,-1.0,/,-1,
O=C(CN1C(=O)CC(c2ccco2)Sc2ccccc21)Nc1ccccc1F (centres undefined),19,3,2.1,-1%,1,
O=C(NCc1n[nH]c(=S)n1-c1ccc(F)cc1)c1ccco1,-16,5,-3.7,0%,-6,
Cc1ccc(C2=N/C(=C\c3ccc(OS(=O)(=O)c4ccc(C)cc4)cc3)C(=O)O2)cc1,-18,6,-0.2,-1%,95,
Cn1nc(OCc2ccccc2)ccc1=O,-55,0,/,1%,-1,
CC(=O)NC(=O)c1cnn(-c2ccccc2)c1N,/,/,-0.1,-1%,-2,
COc1ccc(Nc2nnc(SCC(=O)c3cc4ccccc4o3)s2)cc1,/,/,-6.3,-3%,-6,
Cc1cccc(OCCCC(=O)Nc2ccc(S(N)(=O)=O)cc2)c1,/,25,1.0,7%,-5,
Cn1c(=O)c2c(nc(N/N=C/c3ccco3)n2C)n(C)c1=O,/,-4,-1.8,-9%,4,
COc1cccc(C(=O)N(Cc2nc(-c3ccc(C)cc3)no2)C(C)C)c1,-1,5,4.2,-4%,-11,
Cc1ccc(N2C(=O)C3CCCN3C2=S)cc1 (centres undefined),/,/,3.0,/,-2,
Cc1ccn2cc(-c3ccc(NC(=O)c4ccco4)cc3)nc2c1,-30,-15,1.6,10%,5,
O=C(N/N=C/c1ccccn1)c1cccc([N+](=O)[O-])c1,/,-6,-0.1,-3%,68,
Cc1cccc(Nc2nnc(-c3ccc(N4CCOCC4)c([N+](=O)[O-])c3)c3ccccc23)c1,-8,-13,3.9,9%,-1,
O=C(COc1ccc2c3c(c(=O)oc2c1)CCC3)Nc1ccccn1,/,/,-7.9,/,6,
O=C(CCCN1C(=O)/C(=C/c2ccccc2)SC1=S)NCCCn1ccnc1,/,/,16,/,0,
CCN1CCN(C(=O)c2ccc(Cl)c(S(=O)(=O)N3CCCCCC3)c2)CC1,/,2,1.6,-5%,-3,
COc1ccc(N2CC(C(=O)NNC(=O)c3ccc(Br)cc3)CC2=O)c(OC)c1 (centres undefined),/,/,2.1,/,-4,
COc1ccc(N(CC(=O)NC(C)C)C(=O)CCC(=O)Nc2ccccn2)cc1,/,/,-7.4,/,-9,
O=c1c(-c2ccc(Cl)cc2)cnc2n1CCS2,/,1,2.8,6%,-3,
COC(=O)CCC(=O)NNC(=O)c1cccc(Cl)c1,-30,5,-3.1,-3%,?,
CC(NCC(O)COc1ccccc1)C1COc2ccccc2O1 (centres undefined),/,/,1.2,/,6,
CCCCCOc1ccc(OC(=O)c2ccncc2)cc1,-3,-26,-0.5,?,95,
O=C1C2CC=CCC2C(=O)N1c1ccc(NCCc2ccccc2)c([N+](=O)[O-])c1 (centres undefined),-24,-5,-10,2%,10,
O=C(O)CN1C(=O)CC(c2ccccc2)CC1=O,/,/,-1.9,/,-3,
CCOc1ccc(C(=O)NCCCN2CCCC2=O)cc1,-9,4,-1.3,-4%,-1,
COc1ccc(C(=O)C2CCCN(C(=O)c3cc(C4CC4)[nH]n3)C2)c(C)c1 (centres undefined),/,/,2.4,/,4,
CN(Cc1nc2ccccc2n1C)c1ccccc1,/,/,3.2,/,-1,
Cc1ccc(NC(=O)CN(C)C(=O)COc2ccc(C(=O)c3ccc(F)cc3)cc2)cc1,0,-3,1.1,10%,5,
COc1cccc(N2CCN(Cc3ncc(-c4ccccc4)o3)CC2)c1,/,/,3.2,/,-11,
COc1ccccc1NC(=O)C1CC(=O)N(c2ccc(F)cc2)C1 (centres undefined),-14,3,-3.8,-1%,-1,
Cc1ccc(NCc2ccco2)cc1C,/,-6,2.8,-4%,-3,
O=C(NCC(c1ccco1)N1CCN(c2ccccc2)CC1)c1ccco1 (centres undefined),/,/,5.4,/,-8,
CCS(=O)(=O)N1CCC(C(=O)NCCN2CCOCC2)CC1,-30,6,0.8,5%,-7,
O=C1CN(C(=O)c2ccccc2F)C(c2ccccc2)c2cc(F)ccc2N1 (centres undefined),/,/,4.4,/,0,
# Continuation:
SMILES,YopH inh,Arbovirus anti,RecA splice inh,Mtb growth,Mtb betalactam,others
COc1ccc(NC(=O)c2ccsc2NC(C)=O)cc1,/,-5,-0.9,0%,-6,
COC(=O)c1sc2nc3c(cc2c1N)COC(C)(C)C3,3,-1,-6.0,-5%,-1,Arbovirus anti repeat=2
COc1cc(NC(=O)CSc2nc(C)cc(C)n2)cc(OC)c1OC,/,8,-4.0,-3%,2,
CN(Cc1ccc(-n2cccn2)cc1)Cc1cn(C)nc1-c1ccccc1F,/,9,-2.8,0%,-1,
COc1ccccc1NC(=O)CSc1nnc(CSc2nc(C)cc(C)n2)o1,/,-1,0.5,-1%,-5,
O=S(=O)(NCCc1ccncc1)c1ccc(S(=O)(=O)N2CCCCCC2)cc1,-35,-10,1.3,3%,-4,
COc1cc(OC)c(NS(=O)(=O)c2ccc3c(c2)NC(=O)CO3)cc1Cl,/,/,-6.0,/,3,
c1ccc(CN2CCN(Cc3ccc4c(c3)OCCO4)CC2)cc1,-6,-5,-0.9,-2%,-15,
Cc1ccc(NC(=O)CN2C(=O)N/C(=C/c3ccc(C)o3)C2=O)cc1,-31,5,-0.6,0%,-2,
CC(C)CCCN1CCN=C1Nc1ccccc1,/,/,1.6,/,-2,
Cc1ccc(-c2csc(NC(=O)CSc3ncn(-c4ccccc4)n3)n2)cc1,-21,-4,2.0,-1%,76,
CC(C)(C)NC(=O)CSc1nc2ccc(Nc3nc(N4CCOCC4)nc(N4CCOCC4)n3)cc2s1,/,-2,0.2,25%,43,
Cc1cnc(CNC(=O)CC2C(=O)NCCN2Cc2ccccc2C(F)(F)F)cn1 (centres undefined),/,/,-6.7,/,-5,
Cc1ccc(C2=NC(C)(C)N=C2SCC(=O)Nc2ccc(Cl)cc2)cc1,-39,13,/,5%,57,
CC(C)(C)C(=O)N1N=C(c2ccc(NS(C)(=O)=O)cc2)CC1c1cccs1 (centres undefined),/,-14,4.7,6%,5,
COc1ccc(N2CCN(C(=O)CSc3nnc(C)c(=O)[nH]3)CC2)cc1,-20,1,0.9,8%,5,

# In the list so far, these contain an aryl methoxy group:
SMILES,YopH inh,Arbovirus anti,RecA splice inh,Mtb growth,Mtb betalactam,others
COc1ccc(O)c(C(=O)c2cc(C#N)c(=O)n(Cc3ccccc3)c2)c1,/,7,-2.1,4%,-2,
CCOc1ccc(N(C(=O)CNC(=O)c2cccs2)C(C(=O)NCC2CCCO2)c2ccc(OC)c(OC)c2)cc1 (centres undefined),/,1,2.3,5%,-4,
COc1cc(OC)c(NC(=O)CCCn2c(=O)oc3ccccc32)cc1Cl,-27,2,-0.9,2%,7,
COc1ccc(CC(=O)NNC(=S)NC(=O)c2cccnc2)cc1,/,/,-0.1,-12%,5,
COc1ccc2cc(N=Cc3nc(-c4ccc(C)cc4)oc3O)cnc2c1,/,10,-4.6,2%,7,
COc1ccccc1[As](=O)(O)CC(O)COc1ccc(Cl)cc1Cl (centres undefined),/,/,2.0,-6%,8,
COc1ccc(N(CC(=O)NCCC2=CCCCC2)S(C)(=O)=O)cc1OC,7,9,-2.1,-1%,/,
COc1ccc(CN(C)C(C)C(=O)Nc2cccc3ccccc23)cc1 (centres undefined),/,/,3.7,/,60,
COc1cc(S(=O)(=O)N2CCCCCC2)c(OC)cc1Br,-32,5,4.0,-8%,8,Arbovirus anti repeat=1
COc1ccc(-c2nc3ccccc3c(=O)n2-c2nccs2)cc1,-30,-2,-0.8,-4%,1,
COc1ccc(Nc2nnc(SCC(=O)c3cc4ccccc4o3)s2)cc1,/,/,-6.3,-3%,-6,
COc1cccc(C(=O)N(Cc2nc(-c3ccc(C)cc3)no2)C(C)C)c1,-1,5,4.2,-4%,-11,
COc1ccc(N2CC(C(=O)NNC(=O)c3ccc(Br)cc3)CC2=O)c(OC)c1 (centres undefined),/,/,2.1,/,-4,
COc1ccc(N(CC(=O)NC(C)C)C(=O)CCC(=O)Nc2ccccn2)cc1,/,/,-7.4,/,-9,
COc1ccc(C(=O)C2CCCN(C(=O)c3cc(C4CC4)[nH]n3)C2)c(C)c1 (centres undefined),/,/,2.4,/,4,
COc1cccc(N2CCN(Cc3ncc(-c4ccccc4)o3)CC2)c1,/,/,3.2,/,-11,
COc1ccccc1NC(=O)C1CC(=O)N(c2ccc(F)cc2)C1 (centres undefined),-14,3,-3.8,-1%,-1,
COc1ccc(NC(=O)c2ccsc2NC(C)=O)cc1,/,-5,-0.9,0%,-6,
COc1cc(NC(=O)CSc2nc(C)cc(C)n2)cc(OC)c1OC,/,8,-4.0,-3%,2,
COc1ccccc1NC(=O)CSc1nnc(CSc2nc(C)cc(C)n2)o1,/,-1,0.5,-1%,-5,
COc1cc(OC)c(NS(=O)(=O)c2ccc3c(c2)NC(=O)CO3)cc1Cl,/,/,-6.0,/,3,
COc1ccc(N2CCN(C(=O)CSc3nnc(C)c(=O)[nH]3)CC2)cc1,-20,1,0.9,8%,5,

# High-throughput results as filed in PubChem.
